VACV mCherry inh: inhibitors of vaccinia virus infection (mCherry reporter signal); Vaccinia virus mCherry reporter infection, fluorescence; about a quarter of the inactives have no number; Potency, µM (top dose mostly 36.5 µM), without a hit: at the highest dose activity change, negative = inhibition, usual class: inhibitors; 0.63% of 310,000 active; AID 720579; active = well fitted inhibition curve with a large enough effect; inconclusive = small, poorly fitted or top-dose-only effect; inactive = no such curve, though single readings can be large or run the other way; tested in A549 cells; further: nearly all actives have a fitted effect of over 35% in size; inactives centre near -10
VACV Venus inh: inhibitors of vaccinia virus (Venus reporter); Vaccinia virus Venus reporter expression, fluorescence; Potency, µM (highest dose often 36.5 µM), for the others: at the top dose activity change, negative = inhibition, usual class: inhibitors; 0.46% of 330,000 active; active means well fitted inhibition curve with a large enough effect; inconclusive means small, poorly fitted or top-dose-only effect; inactive means no such curve, though single readings can be large or run the other way; tested in A549 cells; further: nearly all actives have a fitted effect of over 30% in size; inactives centre near -10
* hit, by the source's call; i = inactive; ? = inconclusive; . = not tested or not shown; & = joins results of further samples; [ ] = another dose, or the depositor's remark. On the % scale 0 is the no-effect control and ±100 the full control effect; potency means the concentration at half of the fitted maximal effect.

SMILES	VACV mCherry inh	VACV Venus inh
Nc1ccc(-c2nc3ccc(-c4nc5ccc(N)cc5[nH]4)cc3[nH]2)cc1	-11%	-5%
Cc1nn2c(=O)cc(COC(=O)c3ccc(S(=O)(=O)N4CCCCC4)cc3)nc2s1	-15%	-2%
O=S(=O)(CCc1ccccc1)N1CCOCC1	.	-4%
CC(C)C(NS(=O)(=O)c1ccccc1F)C(=O)N1CCc2ccccc2C1 (configuration not stated)	-9%	-7%
COc1ccc(CNC(=O)COC(=O)c2cc(-c3cccs3)nc3ccccc23)cc1OC	1%	-2%
CCCN(c1ccc(C)cc1)c1nc(=O)c2cccnc2s1	-23%	-14%
COc1ccc(CCNC(=O)COC(=O)C2CC2)cc1	-1%	-9%
Cc1cc(-c2ccccc2)n2nc(-c3cccc(Br)c3)cc2n1	-18%	-6%
COc1ccc(C2/C=C\CN(C(=O)C3CC3)[C@H](Cc3ccccc3)C(=O)N2Cc2ccc(F)cc2)cc1 (some centres not stated)	?	?
CC(=O)Nc1cc(NC(C)=O)cc(C(=O)OC(C)C(=O)Nc2ccc(S(=O)(=O)N3CCCC3)cc2)c1 (configuration not stated)	i	-2%
Cc1cc(O)ccc1Nc1cc(-c2cccc(N)c2)ncn1	i	2%
CC1(C)COC(c2ccc3c(c2)OCO3)OC1	-1%	-2%
COc1cc(N)c(C(O)c2nccc3cc(OC)c(OC)cc23)cc1OC (configuration not stated)	-30%	-11%
C/C(CC(=O)Nc1cccc(Cl)c1Cl)=N\NC(=O)C(=O)NC1CCCCC1	-3%	-3%
CC1(C)OC(=O)N(c2ccccn2)C1(C)O (configuration not stated)	.	-3%
Cc1ccc(OCCCn2ccnc2)c([N+](=O)[O-])c1	-21%	-8%
CC(=O)NC(c1ccc(F)c(F)c1)c1nc(-c2ccncc2)cs1 (configuration not stated)	18%	-15%
Cc1cccc(NC(=O)c2sc(NC(=O)c3ccco3)c(C#N)c2C)c1C	-15%	-11%
Cc1[nH]c2ccccc2c1C(=O)CSC(=S)N(C)C	i	-5%
CC(=O)c1nc(N2C(=O)CC(Cc3cccc(C)c3)C2=O)sc1C (configuration not stated)	-14%	-5%

Complete entries, quoted from the list.
CC(=O)c1nc(N2C(=O)CC(Cc3cccc(C)c3)C2=O)sc1C (configuration not stated) in the list: VACV mCherry inh = -14%; VACV Venus inh = -5%
COc1ccc(CNC(=O)COC(=O)c2cc(-c3cccs3)nc3ccccc23)cc1OC in the list: VACV mCherry inh = 1%; VACV Venus inh = -2%
CCCN(c1ccc(C)cc1)c1nc(=O)c2cccnc2s1 in the list: VACV mCherry inh = -23%; VACV Venus inh = -14%

An excerpt of these results, with two lines to a compound:
Values in the order – VACV mCherry inh | VACV Venus inh
COc1ccc(CCNC(=O)COC(=O)C2CC2)cc1
    -1% | -9%
Cc1cc(-c2ccccc2)n2nc(-c3cccc(Br)c3)cc2n1
    -18% | -6%
COc1ccc(C2/C=C\CN(C(=O)C3CC3)[C@H](Cc3ccccc3)C(=O)N2Cc2ccc(F)cc2)cc1 (some centres not stated)
    ? | ?
CC(=O)Nc1cc(NC(C)=O)cc(C(=O)OC(C)C(=O)Nc2ccc(S(=O)(=O)N3CCCC3)cc2)c1 (configuration not stated)
    i | -2%
Cc1cc(O)ccc1Nc1cc(-c2cccc(N)c2)ncn1
    i | 2%
CC1(C)COC(c2ccc3c(c2)OCO3)OC1
    -1% | -2%
COc1cc(N)c(C(O)c2nccc3cc(OC)c(OC)cc23)cc1OC (configuration not stated)
    -30% | -11%

Following part:
SMILES	VACV mCherry inh	VACV Venus inh
Cc1ccc(-n2ncc3c(NNC(=O)c4ccco4)ncnc32)c(C)c1	i	-13%
O=C1CSC(=Nc2ccc(O)cc2)N1c1ccc(O)cc1	i	0%
CCc1nc2ccc(C(=O)Nc3cccc(NS(C)(=O)=O)c3)cn2c1N(C)Cc1nccn1C	i	-1%
Cc1ccc(Sc2c(C)nn(C(=O)CNS(=O)(=O)c3ccc(F)cc3)c2C)cc1	i	-12%
Cc1cc(C)c(/C=C/c2onc(C)c2S(=O)(=O)N2CCC(C(=O)N3CCN(c4ccc(Cl)cc4)CC3)CC2)c(C)c1	-11%[7.34 µM]	-17%[7.34 µM]
COc1ccc(F)cc1S(=O)(=O)N1CCC2(CC1)OCCN2S(=O)(=O)c1cccs1	i	-12%
Cc1cc(C)n(-c2nc3ccccc3c(=O)n2OCc2ccc(F)cc2)n1	.	-20%
COc1ccccc1CNC(=O)C1(C)CCN1C(=O)Cc1ccc(-c2ccccc2)cc1 (configuration not stated)	8%	-18%
O=C(c1cc2ncccn2n1)N1CCc2c([nH]c3ccccc23)C1c1ccccc1F (configuration not stated)	-8%	-7%
C[C@]1(O)CCC2C3CC[C@@H]4CC(=O)CC[C@]4(C)C3CC[C@@]21C (some centres not stated)	-9%	-14%
CC(=O)c1c(C)[nH]c(C(=O)OCC(=O)N(CC(C)C)C2CCS(=O)(=O)C2)c1C (configuration not stated)	-14%	-7%
COc1cc(O)cc(/C=C/c2ccccc2)c1	?	?
C=CCn1c(-c2ccc3[nH]c(C)c(C)c3c2)n[nH]c1=S	.	-30%
CCC/C(=N\NC(=O)CNC(=O)c1ccc(Cl)cc1)c1ccccc1	-1%	-9%
OCCN1CCN(C(=S)c2ccc(Br)cc2)CC1	-6%	-3%
COc1ccccc1-c1nc(-c2ccccc2)[nH]c(=O)c1C#N	i	-8%
COc1ccc(C2=CC(=O)CC(C)(C)C2)cc1	i	-16%
CN(C)C(=O)c1ccc(NC(=O)c2ccc(-c3ccc(Cl)cc3)o2)cc1	-24%	-15%
COc1cccc(Nc2nc(-c3ccc4c(c3)OCCO4)cs2)c1	?	-30%
CN1CCN(S(=O)(=O)c2ccc(Nc3ccc(F)cc3)nc2)CC1	-4%	-21%
N/C(=N\OC(=O)c1ccc([N+](=O)[O-])cc1)c1cccnc1	i	-2%
CCCCN(CC)S(=O)(=O)c1ccc(C(=O)Nc2nnc(COC)o2)cc1	?	-28%
COc1ccccc1CC(=O)Nc1c[nH]c(=O)[nH]c1=O	-4%	-9%
Cc1ccc(S(=O)(=O)N2CCC(C(=O)OCC(=O)N3C(C)CCCC3C)CC2)cc1C (configuration not stated)	i	-10%
O=C(CSc1nnc(CNC(=O)c2ccccc2)o1)NCc1ccc(F)cc1	i	-2%
N#Cc1ccccc1NC(=O)COC(=O)c1ccc(F)cc1F	18%	5%
CCOc1ccccc1Oc1coc2cc(OC)ccc2c1=O	-1%	-12%
Cc1nc2ccsc2c(=O)n1-c1ccc(Cl)cc1	-7%	-5%
Cc1cccc(OCCC(=O)NCC(=O)Nc2cccc(C)c2C)c1	16%	-7%
CCOc1ccc(N2C(=O)CC(SC(=NC)Nc3ccc4c(c3)OCO4)C2=O)cc1 (configuration not stated)	i	-26%
Cc1ccccc1N(C(=O)c1csnn1)C(C(=O)NC1CCCCC1)c1ccncc1 (configuration not stated)	1%	-4%
Cc1coc2c1c(C)cc1oc(=O)c(CC(=O)NCC(=O)O)c(C)c12	-3%	-5%
Cc1csc2nc(COC(=O)c3ccc(NC(=O)c4ccccc4Br)cc3)cc(=O)n12	-14%	-8%
CCn1c(CC(=O)Nc2ccccc2F)nnc1SCC(=O)Nc1nnc(C)s1	3%	2%
Cc1ccc(N/N=C(\C#N)C(N)=S)cc1C	?	-27%
CCCCN(C(=O)c1cccs1)C1CCS(=O)(=O)C1 (configuration not stated)	-15%	-7%
COc1ccc(NC(=O)COC(=O)c2ncc(Cl)c(Cl)c2Cl)c(OC)c1	-7%	-6%
OC(c1cccnc1)c1ccc2c(c1)CN(Cc1cccc3c1OCO3)CCO2 (configuration not stated)	-1%	-10%
Cc1cc(OCC(=O)NCc2ccccn2)c2c(C)cc(=O)oc2c1	0%[7.34 µM]	7%[7.34 µM]
Cc1ccc(C)c(NC(=O)N2CCN(C)c3ncccc32)c1	12%	-4%
CN1CCN(C2Cc3ccc(Cl)cc3Sc3ccc(F)cc32)CC1 (configuration not stated)	-1%[7.34 µM]	3%[7.34 µM]
Cc1cc(/C=C2\C(=O)NC(=O)N(Cc3ccccc3Cl)C2=O)c(C)n1-c1ccc(C(=O)O)cc1	-15%	-6%
CC(=O)Nc1ccc(SCC(=O)c2c(N)n(Cc3ccccc3)c(=O)n(C)c2=O)cc1	?	?
CCOC(=O)C1(CCOC)CCN(C2C3CC4CC(C3)CC2C4)CC1 (configuration not stated)	-3%	-2%
CC(=O)NC1C(OC(=O)Cc2ccccc2)OC(COC(C)=O)C(OC(C)=O)C1OC(C)=O (configuration not stated)	-12%	-4%
Cc1nc2nc(C)c(NS(=O)(=O)c3cccs3)c(=O)n2[nH]1	-9%	3%
CCCOC(=O)c1ccc(S(N)(=O)=O)o1	-14%	-9%
COC(C[C@@H](O)C[C@H](O)[C@@H](C)OCc1ccccc1)OC	i	-1%
CC(=O)Nc1ccc(NC(=O)CSc2nccn2C)cc1	6%	18%
O=NN(CC(=O)NN=CC=Cc1ccccc1)CC(=O)NN=CC=Cc1ccccc1	i	-7%
O=C1CC(c2ccccc2)Cc2nc(NC3CC3)ncc21 (configuration not stated)	i	-7%
Cc1ccc(NS(=O)(=O)c2cccc(C(=O)N3CCCCCCC3)c2)cc1	i	-17%
CC(C)CNC(=O)C(=O)NCc1ccccn1	12%	6%
CC1=C(C(=O)N2CCOCC2)CC(CC(=O)NCc2cccc3ccccc23)C(=O)N1Cc1ccc(F)cc1 (configuration not stated)	0%	-20%
COc1cc2c(cc1OC)C(c1cccs1)N(C(=O)c1ccncc1)CC2 (configuration not stated)	-17%	-18%
CC(=O)Nc1ccc(S(=O)(=O)NCCC(=O)OCC(=O)c2ccc(F)c(F)c2)cc1	-16%	-17%
CCOc1ccc(C(=O)NCc2cccnc2)cc1[N+](=O)[O-]	i	-8%
O=C(CSc1nnc(COc2cccc3cccnc23)o1)c1ccc(F)cc1	i	-13%
COc1ccc(Cn2c(-c3ccc(OC)cc3)nc3ccccc32)cc1	-7%	0%
Cc1cccc(OCC(=O)Nc2ccc(-c3nc4cc(C)ccc4o3)c(O)c2)c1	?	?

Random excerpt: two compounds from above
SMILES	VACV mCherry inh	VACV Venus inh
COC(C[C@@H](O)C[C@H](O)[C@@H](C)OCc1ccccc1)OC	i	-1%
O=C1CC(c2ccccc2)Cc2nc(NC3CC3)ncc21 (configuration not stated)	i	-7%

Next section
SMILES	VACV mCherry inh	VACV Venus inh
CN(C)CCN(C(=O)c1ccc2c(c1)CCCC2)c1nc2c(F)cccc2s1	i	-3%
CC1CCN(C(=O)Cn2cc(C#N)c3ccccc32)CC1	.	5%
Cc1cccc(-n2c(-c3ccoc3C)n[nH]c2=S)c1	i	-13%
CC1(C(=O)NS(=O)(=O)C2CC2)CCCN(C(=O)c2cccc(C(F)(F)F)c2)C1 (configuration not stated)	i	6%
Cc1ccc(SCc2ccc(C(=O)Nc3cc([N+](=O)[O-])ccc3C)cc2)cc1	i	-11%
COc1ccc(N2CCN(S(=O)(=O)CCNC(=O)/C=C/c3ccc4c(c3)OCO4)CC2)cc1	-13%	-15%
COc1ccc(-n2c(=O)c3ccc(C(=O)NCc4ccc(C)cc4)cc3n(Cc3ccc(C)cc3)c2=O)cc1	1%	0%
Cc1ccc(NC(=O)COC(=O)COc2cccc3c2OC(C)(C)C3)c(C)c1	i	-9%
COc1cc(C(=O)Oc2ccccc2OC(=O)c2cc(OC)c(OC)c(OC)c2)cc(OC)c1OC	?	0%
CCNc1nc(NCC)n2c(SCC(=O)NCC3CCCCC3)nnc2n1	i	-2%
Cc1ccc(NC(=O)c2oc3ccc(S(=O)(=O)N4CCC5(CC4)OCCO5)cc3c2C)cc1C	-9%&-9%	-4%&-18%
COC(=O)C1=C(C)OC(N)=C(C#N)C1c1cc(C)sc1C (configuration not stated)	-9%	-13%
OCC[C@H]1C[C@H](O)[C@@H](O)[C@@]2(CCCCO2)O1	-15%	-5%
CC1=C(C(=O)O)N2C(=O)C(NC(=O)c3ccccc3Cl)C2SC1 (configuration not stated)	i	-3%
C=CCNc1nc2ccccc2nc1NS(=O)(=O)c1cccs1	-2%	5%
COc1cc2c(cc1OC)C(c1c(Cl)cccc1Cl)=NCC2	19%	-5%
CC(C)(C)NC(=O)NC(=O)COC(=O)c1cccc(S(=O)(=O)N2CCCCC2)c1	-7%	-7%
[2H]C(CCOS(N)(=O)=O)c1ccc(C(C)(C)C)cc1 (configuration not stated)	?	-25%
CC(=O)Nc1cccc(C(=O)OC(C)C(=O)NCc2ccc3c(c2)OCO3)c1 (configuration not stated)	i	-3%
CCC(=O)Nc1ccc(-c2nc3ccccc3c(=O)o2)cc1	13%	5%

Entries above that have a COOH group (3):
SMILES	VACV mCherry inh	VACV Venus inh
Cc1coc2c1c(C)cc1oc(=O)c(CC(=O)NCC(=O)O)c(C)c12	-3%	-5%
Cc1cc(/C=C2\C(=O)NC(=O)N(Cc3ccccc3Cl)C2=O)c(C)n1-c1ccc(C(=O)O)cc1	-15%	-6%
CC1=C(C(=O)O)N2C(=O)C(NC(=O)c3ccccc3Cl)C2SC1 (configuration not stated)	i	-3%

(listing goes on)
SMILES	VACV mCherry inh	VACV Venus inh
CCOc1ccc(C(=O)COC(=O)c2cc([N+](=O)[O-])ccc2N2CCOCC2)cc1	?	-20%
O=C1CCC([N+](=O)[O-])C(c2ccc(Cl)cc2Cl)N1 (configuration not stated)	.	-34%
CC(=O)C1=C(c2ccc(Cl)cc2)N(C(C)=O)n2c(nnc2C2CCCCC2)S1	-15%	-16%
COc1cccc(-c2cnc3c(NC(C)=O)cc(-c4cc(F)ccc4OC)cn23)c1	-12%	?
Cn1cccc1CNC(=O)Nc1ccc(Cl)c(Cl)c1	-3%[1.46 µM]	-25%

Source: PubChem BioAssay (National Center for Advancing Translational Sciences (NCATS))
